Yeast UUG start: yeast start codon fidelity modulation; S. cerevisiae UUG-firefly luciferase reporter, luminescence/redox ratio; activity score, % at 18.7 µM; 350,000 tested, 0.13% active;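 active = replicate mean at a twofold rise or more, about +100% in these data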;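 also: firefly luciferase made from a UUG start codon reports start codon fidelity; reporter light over untreated wells divided by growth signal over untreated wells; some hits fall short of that in this replicate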
eIF4H FP inh: inhibitors of RNA binding by human eIF4H. Q15056. 290,000 tested, 0.94% active. eIF4H fluorescence polarization binding assay. inhibition, % at 35 µM;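 active = 50% or more with normal probe brightness, or confirmed in later tests; inconclusive = above 50% with abnormal brightness, or retests that disagree; inactive = below 50% or failed in later tests; about a fifth of its hits are not listed in these tables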;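 also: calls also rest on retests at 20 µM and on dose response follow-up; 0% = protein and probe with vehicle and 100% = probe without protein; strong numbers were not always called active; many hits fall short of the cut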
PABP FP inh: blocks human PABP binding to poly(A) RNA; P11940; fluorescence polarization; inhibition, % at 35 µM; 290,000 tested, 1% active;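 active = 50% or more with normal probe brightness, or confirmed in later tests; inconclusive = above 50% with abnormal brightness, or retests that disagree; inactive = below 50% or failed in later tests; about a fifth of its hits are not listed in these tables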;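 also: calls also rest on retests at 20 µM and on dose response follow-up; controls were probe without protein and protein plus probe with vehicle; some compounds called inactive have numbers as strong as hits; many hits fall short of the cut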
MT1-MMP act inh: blocks activation of human MT1-MMP; GFP/RFP ratio change, % at 20 µM; AID 651647; P50281; 360,000 tested, 0.061% active; HT1080 RFP-PRO-GFP cells, GFP/RFP ratio fluorescence, overnight; percent of plate control window, DMSO zero;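 active = GFP/RFP ratio change of at least 30% with cell ATP level not reduced by more than half and red fluorescence within 50% of control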; also: strong numbers were not always called active
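Material: RFP-PRO-GFP reporter HT1080 cells. Dosing: single-point 20 µM compound, 1% DMSO. Controls: DMSO and RFP-L50D-GFP cell wells. Timing: cells overnight before dosing, compound overnight, 37 °C, 5% CO2. Measure: GFP/RFP fluorescence ratio.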
Env fusion inh: inhibitors of HIV Env-mediated cell fusion. 360,000 tested, 1.1% active. inhibition, % at 12.3 µM. HeLa-JRFL Env/CEM21 cell fusion, luciferase. AID 651610;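 active = mean replicate inhibition score of at least 50 and every replicate individually at or above 50; inconclusive = only one of the two criteria met; inactive = mean below 50 and not all replicates reaching 50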;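 also: 0% = plate neutral controls and 100% = maraviroc near 300 nM; one replicate is shown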
Rce1 inh: yeast Ras-converting enzyme inhibition; 290,000 tested, 0.27% active; yeast membranes, quenched prenylated peptide cleavage fluorescence; Q03530; calls only; AID 2563;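 active = fall in fluorescence gain of 50% or more versus controls, with final raw signal at or below 3038400; inconclusive = same 50% fall but final raw signal above 3038400; inactive = fall in fluorescence gain under 50%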;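 also: plate controls were neutral control wells for no effect and wells lacking membranes for full effect; tested at 10 µM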
Target sequence (Q03530 whole entry, looked up): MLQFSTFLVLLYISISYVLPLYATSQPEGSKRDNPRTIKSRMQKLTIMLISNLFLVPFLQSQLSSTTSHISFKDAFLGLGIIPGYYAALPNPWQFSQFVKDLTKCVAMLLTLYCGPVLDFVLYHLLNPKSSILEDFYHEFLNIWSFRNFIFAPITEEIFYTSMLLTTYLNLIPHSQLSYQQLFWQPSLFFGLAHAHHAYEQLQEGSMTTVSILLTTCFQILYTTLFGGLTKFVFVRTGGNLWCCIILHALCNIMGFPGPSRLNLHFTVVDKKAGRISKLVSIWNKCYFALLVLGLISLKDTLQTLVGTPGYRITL
CSC inhib: cancer stem cell inhibition | cancer stem cell-like cells viability, luminescence | inhibition, % at 7.5 µM | 300,000 tested, 1.1% active | AID 2717;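 active = mean at 75% or more and at least half the replicates too; inconclusive = mean and replicates disagree; tested in HMLE shEcad cells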;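 also: 0% = median of negative and 100% = median of positive control wells; the first replicate is given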
eIF4H FP inh retest: recorded beside eIF4H FP inh, whose call it bears; inhibition, %; compound at 20 µM; confirmation average;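 mean of two retest wells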
PABP FP inh retest: further read-out of PABP FP inh, marked with its call; inhibition, %; compound at 20 µM; confirmation repeats;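 mean of two retest wells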
MT1-MMP act inh RFP: recorded beside MT1-MMP act inh, whose call it bears; RFP signal change, %; measured here: RFP expression control read;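 0 = vehicle wells; hits needed this value within 50% of zero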
Numbers without * were called inactive; i = inactive; ? = inconclusive; / = not tested or not shown; & = joins results of further samples.

SMILES | Yeast UUG start | eIF4H FP inh | PABP FP inh | MT1-MMP act inh | MT1-MMP act inh RFP | Env fusion inh | Rce1 inh | CSC inhib | others
COc1cccc(NC(=O)CN(C)C(=O)CN2C(=O)NC(C)(c3ccc4ccccc4c3)C2=O)c1 (stereo unspecified) | -1 | / | / | 5 | -2 | -3 | i | /
CCN1CCN(C(=O)/C=C/c2cccc(Cl)c2)CC1 | -5 | 6 | -3 | -1 | 2 | 0 | i | 5
COc1ccc(CCNC(=O)c2c[nH]c3ccc(F)cc3c2=O)cc1OC | -32 | 1 | 3 | 6 | 4 | 1 | i | 3
CC(CCc1ccccc1)NC(=O)c1nnc(Cc2ccc(F)cc2)o1 (stereo unspecified) | -42 | 4 | -3 | 0 | 1 | 4 | i | -10
O=C(NC1CCCC1)C(c1ccccn1)N(C(=O)c1csnn1)c1ccccc1 (stereo unspecified) | -15 | -5 | 2 | -3 | 1 | -5 | i | -19
COc1ccc(-c2[nH]ncc2CN2CCCC(C(=O)c3ccc(OC)cc3OC)C2)cc1 (stereo unspecified) | / | 0 | -4 | -2 | -1 | 34 | i | -11
COc1ccccc1C1C([N+](=O)[O-])=CC([N+](=O)[O-])=CN1C (stereo unspecified) | / | 8 | 116 | -21 | 8 | 1 | i | -4 | eIF4H FP inh retest=-12;PABP FP inh retest=3
Cc1n[nH]c(C)c1CN(C)C(=O)C1CCC(=O)N(CCc2cccc(F)c2)C1 (stereo unspecified) | -30 | -6 | -8 | 0 | 3 | -3 | i | 3
CC(CCc1ccccc1)NC(=O)Cc1ccc([N+](=O)[O-])cc1 (stereo unspecified) | -7 | 3 | -7 | -2 | 3 | 14 | i | 5
CC(C)CC(=O)Nc1ccnn1C1CCN(C(=O)c2ccc(F)cc2Cl)CC1 | -21 | -4 | -2 | 1 | 1 | -7 | i | 3
C[C@H]1CN([C@@H](C)CO)C(=O)CCCn2nncc2CO[C@H]1CN(C)C(=O)c1ccccc1 | -18&-8 | / | / | -1 | 3 | 9 | / | /
Clc1cccc(CNCC2CCCO2)c1Cl (stereo unspecified) | -10 | -6 | 1 | 0 | 2 | -11 | i | -11
COC(=O)c1[nH]c2c(c1C)C(=O)CC(c1cc(OC)ccc1OC)C2 (stereo unspecified) | 4 | -8 | 0 | 2 | -16 | -105 | i | 55
Cc1ccccc1CS(=O)(=O)Cc1ccc(C(=O)NCc2cccnc2)o1 | -22 | -4 | 4 | 1 | -1 | / | i | -10
O=C(C[C@@H]1C/C=C\CCCC(=O)OC[C@@H]2CCCN2C1=O)N[C@H](CO)Cc1ccccc1 | 5 | / | / | 3 | 2 | -6 | / | /
COc1ccc(-c2cc(C(F)(F)F)nc(SCC(=O)NCc3ccco3)n2)cc1OC | -5 | 3 | -1 | 5 | 1 | / | i | -11
COc1ccc(CCC(=O)Nc2cc(S(C)(=O)=O)ccc2Cl)cc1 | / | -4 | 10 | 2 | 1 | / | i | -8
Cc1ccc(C(=O)NCc2ccc3c(c2)OCO3)cc1S(=O)(=O)N1CCOCC1 | 1 | -8 | 3 | -4 | -2 | -24 | i | -6
CN(C)/C=C/C(=O)c1c(F)cccc1F | / | 0 | 0 | 2 | 2 | -11 | i | 10
COc1cccc(NC(=O)Nc2ccc(C)c(Cl)c2)c1 | / | -2 | 5 | 6 | -2 | -6 | i | 16
CC(C)C(=O)NC(=S)Nc1ccc(S(=O)(=O)N2CCCC2)cc1 | -1 | 9 | 4 | 13 | 3 | -13 | i | -8
CC(Nc1nc(C(F)(F)F)nc2ccccc12)c1cccs1 (stereo unspecified) | -13 | -10 | 2 | 1 | -11 | -5 | i | 40
CC1CCCCN1C(=S)Nc1ccc(S(=O)(=O)N2CCCCC2)cc1 (stereo unspecified) | -13 | / | / | 1 | 0 | 19 | / | /
CC1CCN(S(=O)(=O)c2ccc(C(=O)Nc3sccc3C(N)=O)cc2)CC1 | -6 | -12 | 8 | 2 | -24 | -1 | i | -13
Clc1ccc(OCCCc2nc(-c3cccnc3)no2)c(Cl)c1 | -19 | -8 | -4 | -3 | -3 | 14 | i | 1

Grouped by structure: those above containing two or more sulfur atoms (three)
SMILES | Yeast UUG start | eIF4H FP inh | PABP FP inh | MT1-MMP act inh | MT1-MMP act inh RFP | Env fusion inh | Rce1 inh | CSC inhib | others
CC(C)C(=O)NC(=S)Nc1ccc(S(=O)(=O)N2CCCC2)cc1 | -1 | 9 | 4 | 13 | 3 | -13 | i | -8
CC1CCCCN1C(=S)Nc1ccc(S(=O)(=O)N2CCCCC2)cc1 (stereo unspecified) | -13 | / | / | 1 | 0 | 19 | / | /
CC1CCN(S(=O)(=O)c2ccc(C(=O)Nc3sccc3C(N)=O)cc2)CC1 | -6 | -12 | 8 | 2 | -24 | -1 | i | -13

(list continues)
SMILES | Yeast UUG start | eIF4H FP inh | PABP FP inh | MT1-MMP act inh | MT1-MMP act inh RFP | Env fusion inh | Rce1 inh | CSC inhib | others
Cc1onc(-c2c(Cl)cccc2Cl)c1C(=O)N[C@@H]1C(=O)N2[C@@H]1SC(C)(C)[C@@H]2C(=O)O | -35&-21 | -2 | -8 | -1&5 | 4&6 | 16&-11 | i | 3
CCOC(=O)CN1C(=O)/C(=C2\SC(=S)N(NC(=O)c3cccnc3)C2=O)c2ccccc21 | -1 | 6 | 21 | 1 | 6 | 4 | i | -14
Cc1ccc(S(=O)(=O)N(CC(=O)NC2CC3CCC2C3)c2ccccc2)cc1 (stereo unspecified) | -6 | / | / | -3 | -5 | -34 | / | /
Cn1nnnc1SCc1nnc(-c2ccc(F)cc2)o1 | -17 | -11 | -2 | 4 | 7 | / | i | -5
Cc1ccc(C(=O)/C=C/c2ccccc2)o1 | -10 | -2 | -2 | 1 | -1 | -52 | i | 22
Cc1ccc(Cl)cc1N=C(N)N=C(N)N | -16 | -1 | -18 | 3 | 1 | 0 | i | /
O=C1C2CSCN2C(=O)CN1CCCN1CCN(C(c2ccccc2)c2ccccc2)CC1 (stereo unspecified) | -3 | -9 | 3 | -1 | 4 | 4 | i | -6
O=C(Nc1cc(C(F)(F)F)ccc1N1CCOCC1)C1=COCCO1 | 8 | / | / | 2 | 3 | 0 | i | 27
CCC(C)c1ccc(OCC(=O)Nc2cccc(C(=O)Nc3ccc(C(=O)O)cc3)c2)cc1 (stereo unspecified) | -11 | 6 | 15 | 3 | 6 | -23 | i | 19
C=CCSc1nsc(N)n1 | -6 | -9 | -12 | 4 | 5 | -51 | i | -12
O=C(NCC1CCCO1)c1onc(CSc2ccc(Cl)cc2)c1C(=O)O (stereo unspecified) | -5 | -6 | -2 | 4 | 3 | -24 | i | -9
O=C(NCCCOC(=O)c1ccccc1)c1ccccc1 | -7 | / | / | 1 | 4 | -3 | / | /
c1ccc(COc2cccc(CNCc3cccnc3)c2)cc1 | / | -10 | 21 | 0 | -2 | 13 | i | 3
CC(C(=O)N1CCOCC1)c1ccc([N+](=O)[O-])cc1 (stereo unspecified) | / | -14 | -10 | -2 | 1 | -8 | i | -4
CC1(C)Cc2c(c(N3CCOCC3)nc3sc(C(=O)N4CCCCC4)c(N)c23)CO1 | -1 | -10 | -21 | -3 | 3 | 0 | i | /
CNc1nc(-c2ccc(Cl)cc2)cs1 | -23 | -7 | -3 | 1 | 0 | / | i | 9
COCCn1c(C(F)(F)F)ccc(NC(=O)c2ccccc2)c1=O | -8 | -8 | -4 | 1 | 2 | -92 | i | 4
CC1CC(Nc2ccccc2)=NC1(C)C (stereo unspecified) | / | -4 | 15 | 8 | 5 | / | i | -6
C[C@@H]1C=C[C@](Cc2ccccc2)(C(=O)NCC2CC2)N1C(=O)c1ccccc1 | -11 | 3 | 1 | 2 | -2 | -16 | i | -1
COc1ccc(CCNC(=O)C(=O)NCC2CCCN2S(=O)(=O)c2ccccc2)cc1 (stereo unspecified) | 2 | / | / | 0 | -5 | 8 | i | /
COc1ccc(OC)c(NC(=O)CC2SC(=Nc3ccccc3)N(CCc3ccccn3)C2=O)c1 (stereo unspecified) | -6 | -2 | 122 | 5 | -3 | -6 | i | -5 | eIF4H FP inh retest=22;PABP FP inh retest=48
CCOC(=O)C1=C(C)Nc2ncnn2C1/C=C/c1ccccc1 (stereo unspecified) | -6 | -6 | -8 | -9 | -5 | -12 | i | /
CC(C)n1nnnc1-c1cccc(Cl)c1 | -18 | 0 | -4 | -4 | -1 | -10 | i | 4
O=c1ccc2cc(S(=O)(=O)NCCCc3ccccc3)ccc2[nH]1 | -13 | 1 | -1 | 5 | -2 | 23 | i | 5
N#C/C(=C(/O)C(Cl)(Cl)Cl)c1nc2ccccc2[nH]1 | / | 3 | 12 | -9 | -15 | ? | i | -4

Other entries.
SMILES | Yeast UUG start | eIF4H FP inh | PABP FP inh | MT1-MMP act inh | MT1-MMP act inh RFP | Env fusion inh | Rce1 inh | CSC inhib | others
O=C(Nc1ccccc1)Nc1ccc(Cl)nc1Cl | / | / | / | -3 | -11 | -13 | i | 8
Cc1cccc(C)c1N1CCN(C(=O)c2ccc3c(c2)OCO3)CC1 | -8 | 0 | 1 | -1 | -4 | -14 | i | -1
C[C@@H](O)[C@@H]1NC(=O)c2cc([N+](=O)[O-])cc(I)c2NCC[C@@H](C(N)=O)NC(=O)CNC1=O | / | -9 | -2 | / | / | 17 | / | 2
COc1ccc(NC(=S)N2CCC(c3ccc(C)cc3)C2)cc1 (stereo unspecified) | -32 | 8 | -8 | 7 | 5 | -6 | i | -11
O=S(=O)(NCC(c1cccnc1)N1CCN(c2ccccc2)CC1)c1cc(F)ccc1F (stereo unspecified) | -6 | -8 | 0 | 3 | -1 | / | i | 18
CNC(=O)C1CCC(=O)N1Cc1ccccc1Cl (stereo unspecified) | -16 | -8 | -4 | 5 | 0 | -11 | i | -4
O=C(NNc1ccc([N+](=O)[O-])cc1)c1ccccc1Cl | / | 3 | -6 | 0 | -2 | 7 | i | 4
C/C(=N\N=C(/N)SC1CC(=O)N(c2ccc(Br)cc2)C1=O)c1cccs1 (stereo unspecified) | -1 | 2 | -6 | 7 | -4 | / | i | 47

7 entries drawn at random from those above:
SMILES | Yeast UUG start | eIF4H FP inh | PABP FP inh | MT1-MMP act inh | MT1-MMP act inh RFP | Env fusion inh | Rce1 inh | CSC inhib | others
C/C(=N\N=C(/N)SC1CC(=O)N(c2ccc(Br)cc2)C1=O)c1cccs1 (stereo unspecified) | -1 | 2 | -6 | 7 | -4 | / | i | 47
O=C(NNc1ccc([N+](=O)[O-])cc1)c1ccccc1Cl | / | 3 | -6 | 0 | -2 | 7 | i | 4
COc1ccc(NC(=S)N2CCC(c3ccc(C)cc3)C2)cc1 (stereo unspecified) | -32 | 8 | -8 | 7 | 5 | -6 | i | -11
Cc1cccc(C)c1N1CCN(C(=O)c2ccc3c(c2)OCO3)CC1 | -8 | 0 | 1 | -1 | -4 | -14 | i | -1
C[C@@H](O)[C@@H]1NC(=O)c2cc([N+](=O)[O-])cc(I)c2NCC[C@@H](C(N)=O)NC(=O)CNC1=O | / | -9 | -2 | / | / | 17 | / | 2
O=C(Nc1ccccc1)Nc1ccc(Cl)nc1Cl | / | / | / | -3 | -11 | -13 | i | 8
CNC(=O)C1CCC(=O)N1Cc1ccccc1Cl (stereo unspecified) | -16 | -8 | -4 | 5 | 0 | -11 | i | -4

Compound activity deposited in PubChem by several laboratories.
